2A StopGo – High Throughput Screening for Foot and Mouth Disease Virus Antivirals. human cells with a luciferase reporter of 2A StopGo recoding; control for the full effect not named in the record. Potency, µM (highest dose often 57.9 µM), without a hit: at the highest dose signal change, negative = less light. 410,000 tested, 1.2% active. AID 1159524, 2015; active = well fitted falling curve with a large enough effect; inconclusive = small, poorly fitted or top-dose-only effect; inactive = no such curve, though single readings can be large or run the other way; tested in HEK293T cells; further: on the % scale 0 is the no-effect control and ±100 the full control effect; nearly all actives have a fitted effect of over 45% in size; luciferase light after 4 h
LASV entry inh – qHTS for Inhibitors of binding or entry into cells for Lassa Virus | Lassa virus pseudotype entry inhibition, cell reporter; control for the full effect not named in the record | Potency, µM (series often up to 37.9 µM), without a hit: at the highest dose activity change, negative = inhibition, usual class: inhibitors | 300,000 tested, 1.2% active; active means well fitted inhibition curve with a large enough effect; inconclusive means small, poorly fitted or top-dose-only effect, or effect the other way; inactive means flat fitted curve, though single readings scatter; tested in HEK293 cells; further: on the % scale 0 is the no-effect control and ±100 the full control effect; nearly all actives have a fitted effect of over 50% in size; luciferase read-out
Cruzain noTriton – qHTS Assay for Promiscuous and Specific Inhibitors of Cruzain (without detergent); 200,000 tested, 2.3% active; Potency, µM, for the others: max response, negative = inhibition, hits mostly inhibitors; AID 1476, 2009; purified cruzain, Z-FR-AMC fluorescence, no detergent; active means well fitted curve in the direction sought with a large enough effect; inconclusive means small, poorly fitted or top-dose-only effect, or another doubt; inactive means no such curve, though single readings can be large; an effect the other way counts as inactive or inconclusive;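 further: plate controls were enzyme without inhibitor for no effect and buffer without enzyme for full effect; nearly all actives have a fitted effect of over 40% in size; top concentration of the series not given in the record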
Target sequence (P25779 123-467 limits assumed): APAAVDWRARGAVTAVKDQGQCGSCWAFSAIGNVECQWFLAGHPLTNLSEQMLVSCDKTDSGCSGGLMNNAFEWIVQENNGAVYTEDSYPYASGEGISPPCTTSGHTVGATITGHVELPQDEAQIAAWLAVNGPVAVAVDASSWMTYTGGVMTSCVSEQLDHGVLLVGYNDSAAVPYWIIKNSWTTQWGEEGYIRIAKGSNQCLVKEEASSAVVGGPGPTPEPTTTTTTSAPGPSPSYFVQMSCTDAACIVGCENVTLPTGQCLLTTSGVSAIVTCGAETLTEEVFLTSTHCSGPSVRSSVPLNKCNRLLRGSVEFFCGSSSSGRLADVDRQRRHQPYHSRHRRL
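Purified cruzain at 1.5 nM, pre-incubated 15 min with compound at room temperature in 100 mM sodium acetate pH 5.5, 5 mM DTT, 0.00005% Triton X-100. Reaction started with 2 uM Z-FR-AMC; AMC fluorescence increase over 60 s gives rate.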
Marburg entry inh – qHTS for inhibitors of binding or entry into cells for Marburg Virus | Marburg virus pseudotyped entry inhibition, cell reporter; control for the full effect not named in the record; about a third of the inactives were read at about 46 µM | Potency, µM (highest dose often 37.8 µM), without a hit: top-dose activity change, negative = inhibition, most hits filed as inhibitors | 300,000 tested, 1.8% active | AID 540276, 2011; active = well fitted inhibition curve with a large enough effect; inconclusive = small, poorly fitted or top-dose-only effect, or effect the other way; inactive = flat fitted curve, though single readings scatter; tested in HEK293 cells; about a fifth of its hits are not listed in these tables; further: on the % scale 0 is the no-effect control and ±100 the full control effect; luciferase read-out
RE007 growth inh – qHTS Assay for Inhibitors of the HIV-1 protein Vpr | S. pombe RE007 Vpr strain, BacTiter-Glo ATP luminescence, 24 h; control for the full effect not named in the record | Potency, µM (highest dose often 92.2 µM), inactives show at the highest dose activity change, negative = less growth | 360,000 tested, 0.21% active | AID 651644, 2012; active = well fitted falling curve with a large enough effect; inconclusive = small, poorly fitted or top-dose-only effect; inactive = no such curve, though single readings can be large or run the other way;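 further: on the % scale 0 is the no-effect control and ±100 the full control effect; nearly all actives have a fitted effect of over 50% in size; the assay follows cell death caused by Vpr and the record does not say whether a fall means rescue or toxicity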
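Fission yeast RE007 carrying one integrated HIV-1 vpr copy, seeded at OD 0.01 in PMG+AL medium with 23 nL pinned compound. Grown 24 h at 30 degrees; viability read by BacTiter-Glo luminescence after 5 min.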
NS1 inh – qHTS Assay for Inhibitors of Influenza NS1 Protein Function; Potency, µM (series often up to 46.1 µM), for inactives: top-dose activity, positive = more growth; 270,000 tested, 0.4% active; AID 2326, 2010; S. cerevisiae slowed by influenza A NS1, growth recovery by OD600; further: actives are rising curves; nearly all actives have a fitted effect of over 50% in size
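Compounds were scored for reversing the slow growth caused by influenza A NS1 in S. cerevisiae, measured by optical density at 600 nm. Assay medium contained 2% galactose at pH 6.0; NS1-free yeast of the same strain were the positive control.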
Cruzain Triton – qHTS Assay for Promiscuous and Specific Inhibitors of Cruzain (with detergent); Potency, µM, inactives show max response, negative = inhibition, hits mostly inhibitors; 200,000 tested, 0.43% active; Cruzipain (Trypanosoma cruzi), P25779; purified cruzain, Z-FR-AMC fluorescence, 0.01% Triton; active means well fitted curve in the direction sought with a large enough effect; inconclusive means small, poorly fitted or top-dose-only effect, or another doubt; inactive means no such curve, though single readings can be large; an effect the other way counts as inactive or inconclusive;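 further: plate controls were neutral wells for no effect and buffer without enzyme for full effect; nearly all actives have a fitted effect of over 40% in size; top concentration of the series not given in the record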
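Cruzain (1.5 nM) preincubated 15 min at RT with compound in 100 mM sodium acetate pH 5.5, 5 mM DTT, 0.01% Triton X-100. Reaction started with 2 uM Z-FR-AMC; AMC fluorescence (ex 360/em 450 nm) change over 60 s gave rate.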
SARS PLP yeast – qHTS of Yeast-based Assay for SARS-CoV PLP; S. cerevisiae expressing SARS-CoV PLpro, growth rescue; control for the full effect not named in the record; Potency, µM (highest dose often 32.9 µM), for inactives: top-dose activity, positive = growth rescue; 330,000 tested, 0.19% active; further: 0% is about no effect; nearly all actives have a fitted effect of over 55% in size; growth read by luminescence after 48 h
Numbers without * were called inactive; ? = inconclusive; nt = not tested or not shown; & = joins results of further samples; [ ] = remark or other dose. Unless noted, the call rests on the fitted dose curve; in most records, active means well fitted rising curve with a large enough effect; inconclusive means small, poorly fitted or top-dose-only effect; inactive means no such curve, though single readings can be large or run the other way. Potency means the concentration at half of the fitted maximal effect.

Fields: 2A StopGo | LASV entry inh | Cruzain noTriton | Marburg entry inh | RE007 growth inh | NS1 inh | Cruzain Triton | SARS PLP yeast
1	O=C(O)[C@H](Cc1ccccc1)NC(=O)N1CCCCCC1
→ -13.4% | nt | nt | nt | 0.8% | 1.4% | nt | -0.7%
2	CCCCCCCC(=O)NC(Oc1ccccc1[N+](=O)[O-])C(Cl)(Cl)Cl (stereo not drawn)
→ nt | ? | 4.6% | 11.8% | -8.2% | -4.7% | 0.1% | -6.3%
3	CCC(=O)Nc1c(S(=O)(=O)c2ccccc2)c2nc3ccccc3nc2n1C(C)c1ccccc1 (stereo not drawn)
→ 0.0% | -18.6% | 20.2% | ? | -0.8% | 12.6% | -3.2% | -8.1%
4	CC(=O)Nc1nc(=O)c2ccccc2s1
→ -0.3% | -18.4% | 0.8% | 10.9% | -11.1% | -2.6% | 0.5% | 0.1%
5	Cn1c(=O)[nH]c(=O)c2c1nc(CN1CCOCC1)n2CCCc1ccccc1
→ -15.1% | nt | -10.4% | nt | -10.9% | -36.8% | -0.8% | 8.3%
6	COCCn1c(SCC(=O)Nc2nnc(C)s2)nnc1-c1cc2ccccc2cc1O
→ 9.5% | 2.6% | -4.4% | -2.6%&-2.6% | 15.4% | -0.7% | -1.5% | 13.5%
7	Cc1cc(C)cc(NC(=O)Nn2cnnc2)c1
→ -7.6% | -0.9% | nt | -2.1% | -25.9% | -5.3% | nt | 0.1%
8	O=C(O)CCC(=O)Nc1ccc(N2CCCCCC2)cc1
→ -18.8% | ? | -5.1% | ? | 2.3% | 3.6% | 2.9% | -2.9%
9	COC(=O)c1ccccc1N1CCS(=O)(=O)CC1
→ -20.0% | 6.3%[46.1 µM] | nt | ? | 22.1% | 0.6% | nt | -0.6%
10	CC(Sc1nc2c(c(=O)[nH]1)CCCC2)C(=O)Nc1ccc(S(N)(=O)=O)cc1 (stereo not drawn)
→ 11.9% | -1.6% | nt | -3.5%[46.1 µM] | 12.2% | 12.0% | nt | 0.3%
11	O=C1COc2ccc(C(=O)CSc3nnc(NCc4ccccc4)s3)cc2N1
→ -20.6% | nt | nt | nt | -7.2% | -1.2% | nt | -0.1%
12	Cc1ccc(C)n1-c1nnc(N2CCCC(C(=O)NCc3cccc(Cl)c3)C2)s1 (stereo not drawn)
→ ? | -9.6%[46.1 µM] | 9.8% | ? | nt | nt | -10.9% | nt
13	CC12CCC(=O)N1C(C(=O)NCCN1C(=O)S/C(=C\c3ccc(OC(F)F)cc3)C1=O)CS2 (stereo not drawn)
→ -18.6% | 7.3% | nt | 19.8% | 4.1% | nt | nt | -5.9%
14	Cc1cccc(-n2c(=O)c3c(c4cc(C)ccc4n3C)n(C)c2=O)c1
→ -12.3% | -6.6%[46.1 µM] | -2.7% | nt | nt | nt | 0.1% | nt
15	O=C(O)CCc1nc2cc3ccccc3cc2[nH]1
→ -6.0% | -9.6% | nt | 2.5% | -0.4% | nt | nt | -0.9%
16	N#CCCN(C(=O)COC(=O)c1ccc(S(=O)(=O)N2CCCCCC2)cc1)c1ccccc1
→ -5.5% | 1.0% | nt | ? | -6.9% | nt | nt | nt
17	Cc1ccc(C)c(N2CCN(CCCNC(=O)Nc3ccc(Cl)cc3)CC2)c1
→ ? | ? | -2.9% | ? | nt | nt | -13.2% | nt
18	CC(C)CCN1NC2(CCCC(C)C2)NC1=S (stereo not drawn)
→ -3.6% | 4.3% | nt | -2.6%[14.2 µM] | 13.3% | -0.3% | nt | 0.1%
19	CC(C)Cn1c(-c2ccc(Cl)cc2)cnc1SCC(=O)N1CCOCC1
→ ? | -14.4% | ? | -20.3% | 2.0% | -34.2% | -1.1% | 3.7%
20	O=C(CNC(=O)OCc1ccccc1)NC1CCCCCC1
→ 2.7% | ? | nt | -0.8%[46.1 µM] | -9.1% | -0.3% | nt | 2.8%

The final 2 entries of the part above lead into the next:
Fields: 2A StopGo | LASV entry inh | Cruzain noTriton | Marburg entry inh | RE007 growth inh | NS1 inh | Cruzain Triton | SARS PLP yeast
19	CC(C)Cn1c(-c2ccc(Cl)cc2)cnc1SCC(=O)N1CCOCC1
→ ? | -14.4% | ? | -20.3% | 2.0% | -34.2% | -1.1% | 3.7%
20	O=C(CNC(=O)OCc1ccccc1)NC1CCCCCC1
→ 2.7% | ? | nt | -0.8%[46.1 µM] | -9.1% | -0.3% | nt | 2.8%
21	c1ccc(CC2CCN(c3ncnc4sccc34)CC2)cc1
→ ? | -8.5%[46.1 µM] | nt | -12.9%[46.1 µM] | 14.8% | nt | nt | -13.3%
22	CS(=O)(=O)N1CCC(C(=O)Nc2cc(Cl)c(Cl)cc2Cl)CC1
→ -4.4% | 13.5%[46.1 µM] | nt | -17.8%[46.1 µM] | 10.4% | 7.8% | nt | 6.6%
23	CC1Cc2ccccc2N1C(=S)NC(=O)c1ccc(Cl)cc1Cl (stereo not drawn)
→ -25.7% | -12.4% | -0.1% | -19.2% | ? | -8.1% | -7.9% | -35.5%
24	Cc1cc(=O)[nH]c2c(C)cc(S(=O)(=O)Nc3ccc(O)cc3)cc12
→ 31.0%[activator] | nt | nt | nt | 14.6% | 4.7% | nt | 4.0%
25	COc1ccccc1C(=O)Nc1ccc(C(=O)OCc2cc(=O)n3nc(C)sc3n2)cc1
→ 15.8µM* | 22.4%[46.1 µM] | 0.1% | nt | nt | nt | 6.5% | nt
26	CCC(Oc1ccccc1)C(=O)N1CCN(CC)CC1 (stereo not drawn)
→ -26.9% | 6.3% | 3.6% | 3.3%[46.1 µM] | 7.0% | 3.5% | 5.1% | 5.2%
27	Nc1nc(C2CC2)c(Sc2sc(N)nc2C2CC2)s1
→ 25.1µM* | 2.51µM* | -0.3% | ? | -16.4% | -51.2% | 1.9% | 7.3%
28	CCOC(=O)c1ccc(NC(=O)C2(c3ccc(OC)cc3)CCCC2)cc1
→ ? | 11.2µM* | 0.1% | ? | 4.2% | -3.1% | -3.3% | 1.2%
29	COc1ccccc1NC(=O)c1ncoc1-c1ccco1
→ 28.8% | -16.8%[46.1 µM] | -6.9% | nt | nt | nt | -3.6% | nt
30	O=C(c1ccc2c(c1)N(Cc1ccc(Cl)cc1)C(=O)c1ccccc1S2=O)N1CCOCC1 (stereo not drawn)
→ -12.3% | -9.3%[46.1 µM] | ? | 17.7%[46.1 µM] | nt | nt | 0.0% | nt
31	O=C(CCc1ccccc1)NC(=S)Nc1cccc(Br)c1
→ 3.3% | ? | -23.8% | -18.2% | -7.2% | 22.6% | -16.2% | 6.8%
32	Cc1ccc(N2CC(NC(=O)CCc3ccccc3)CC2=O)cc1C (stereo not drawn)
→ 6.3% | 16.0%[46.1 µM] | -6.6% | nt | nt | nt | 0.5% | nt
33	CCCNC(=O)Nc1ccc2c(c1)nc(C)n2C
→ 42.3%[activator] | 26.6% | 4.2% | 1.8%[46.1 µM] | 0.4% | ? | 4.8% | 3.0%
34	O=C(NCC1COc2ccccc2O1)c1cccc(S(=O)(=O)N2CCOCC2)c1 (stereo not drawn)
→ 2.5% | -28.2% | nt | -2.9% | -10.3% | nt | nt | -7.5%
35	CC(C)CC1NC(=O)N(CC(=O)N2CCN(S(=O)(=O)c3ccccc3)CC2)C1=O (stereo not drawn)
→ 0.0% | 1.6% | 7.4% | ? | -10.1% | 3.3% | 1.9% | 3.1%
36	COC(=O)N1CCCc2cc(S(=O)(=O)N3CCN(c4ccccc4)CC3)ccc21
→ -28.6% | ? | -3.5% | -8.3%[46.1 µM] | nt | nt | -4.0% | nt
37	CCCc1[nH]nc2c1C(c1cccnc1)C(C#N)=C(N)O2 (stereo not drawn)
→ 0.0% | 1.9% | 10.5% | 15.8% | 48.8% | 5.2% | 5.9% | 2.7%
38	COc1ccc2c(c1)CCc1c(C(=O)Nc3c(C)nn(Cc4ccccc4Cl)c3C)noc1-2
→ -2.7% | -19.4%[46.1 µM] | -15.5% | ? | nt | nt | -2.9% | nt
39	CCN(CC)CCCNC(=O)c1nn(C)c2c1CSc1ccccc1-2
→ -11.2% | 3.1%[46.1 µM] | -14.0% | 0.0%[46.1 µM] | nt | nt | -2.0% | nt
40	Cc1ccc(OCC(=O)Nc2ccc(O)c(-c3nc4ccccc4o3)c2)cc1
→ ? | ? | 3.98µM* | -3.2% | 20.9% | -2.1% | -2.4% | 3.1%
41	Cc1ccc(S(=O)(=O)n2ccnc2)cc1C
→ 2.4% | nt | -10.1% | nt | 13.7% | -3.1% | -3.6% | -2.0%
42	S=C(NCCOCCOCCNC(=S)Nc1ccccc1)Nc1ccccc1
→ -13.3% | -14.9% | nt | -29.2%[46.1 µM] | -19.8% | 1.6% | nt | -1.3%
43	Cc1ccccc1NC(=O)Cn1c(=O)n(-c2ccc(CC(=O)NCC3CCCO3)cc2)c(=O)c2ccccc21 (stereo not drawn)
→ 16.4%&-22.9% | 10.5%[46.1 µM] | -3.9% | ? | 9.6% | nt | -3.3% | 1.6%
44	Cc1cc(C)n(-c2nc3ccccc3n3cnnc23)n1
→ ? | 3.5% | -1.8% | 16.1% | 23.3% | -0.1% | 0.1% | 4.2%
45	CCc1ccccc1NC(=O)c1cc2c(Cl)nc3ccccc3c2s1
→ 0.0% | -4.4%[46.1 µM] | -2.5% | 0.8%[46.1 µM] | nt | nt | 3.4% | nt
46	CCn1c(C)c(C)c2cc(C(=O)NCc3cccc(C)c3)ccc21
→ 7.0% | -26.0%[46.1 µM] | -7.9% | nt | nt | nt | -5.1% | nt
47	Cc1nc(N/N=C/c2cccc(F)c2)cc(N2CCOCC2)n1
→ ? | -20.2% | nt | 7.94µM* | -0.5% | -37.4% | nt | 1.7%
48	Cc1ccc(NC(=O)C2COc3ccccc3O2)c(C)c1 (stereo not drawn)
→ 60.5%[activator] | -1.1% | nt | ? | 4.6% | -17.5% | nt | -4.1%
